# Screens from PubChem BioAssay.
# Biofilm kill mix: mixtures killing C. albicans biofilm. C. albicans biofilm persisters + clotrimazole, fluorescence viability; primary screen in compound mixtures of four per well. inhibition, % at 7.6 µM. 120,000 tested, 0.02% active. AID 1242;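 active = inhibition above 30.3% in the primary screen of four-compound pools, then above 30% when the compound was retested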;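 also: compounds exposed to preformed 24 h biofilms for 48 h; the number belongs to the whole pool; some results filed as inactive read as strong as hits; inactives centre near 12; 0% = biofilm with clotrimazole alone and 100% = kill control; retested singly at about 60 µM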
#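 Test system: C. albicans CAF4-2 wild-type biofilms; buffer or medium: RPMI/MOPS medium, pH 7.0; schedule: 24 h biofilm formation, then 48 h compound exposure, 37 °C; detection: Alamar Blue fluorescence; measure: percent inhibition of biofilm viability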
# * = called active by the depositor. An excerpt; rates above refer to the full screens.
Molecule | Biofilm kill mix
CCN1C(=O)/C(=C/C=C2\N(CC)c3cc(S(=O)(=O)N(C)C)ccc3N2c2ccccc2)SC1=S | 12
Cc1ccc(C(c2sc3nc(C)nn3c2O)N2CCN(CCO)CC2)cc1 (configuration not stated) | 10
O=C(CCC(=O)c1cccs1)c1cccs1 | 7
O=C(CSc1nnc(-c2ccc(C(F)(F)F)cn2)o1)Nc1cccc(Cl)c1 | 18
Cc1cc(-c2nc3ncccc3o2)ccc1NC(=S)NC(=O)c1ccco1 | 10
CC1(c2nnc(-c3ccc(F)cc3)o2)CC(c2cccc(Cl)c2)=NO1 (configuration not stated) | 13
CCOC(=O)c1cc(-c2ccc(N3CCOCC3)cc2)nn1-c1ccccc1C(=O)O | 18
O=C(c1ccccc1)c1ccc(OCC(O)CN2CCCC2)cc1 (configuration not stated) | 5
Cc1ccc(/C=N/N2CCN(Cc3ccc(C)cc3)CC2)cc1 | 35
COc1cc(/C=N/n2cnc3scc(-c4cccs4)c3c2=O)cc(OC)c1OC | 21
C[N+](C)(CC#Cc1ccccc1)CC(=O)c1ccc(Cl)cc1 | 6
CCOC(=O)c1c(C)c(C(=O)Nc2cc(F)ccc2F)c(C)n1C | 8
Cc1ccc(S(=O)(=O)N/N=C/c2ccc(OCC(=O)N3CCOCC3)cc2)cc1 | 15
CC1=C(C(=O)N2CCOCC2)C(c2ccc(C)cc2)NC(=S)N1 (configuration not stated) | 10
Cc1cc(-c2n[nH]c(=S)n2/N=C/C=C/c2ccccc2)n[nH]1 | 4

# Additional results follow.
Molecule | Biofilm kill mix
COc1ccccc1N1CCN(C(=O)c2ccc(CN3CCOCC3)cc2)CC1 | 13
Cc1c(NC(=O)c2ncn[nH]2)cccc1-c1nc2ccccc2s1 | 7
CC1CCC/C(=C\Nc2ccc(C(=O)O)cc2)C1=O (configuration not stated) | 7
CC(C)N(C(=O)Cn1cc(S(=O)(=O)CC(=O)NC2CCCCC2)c2ccccc21)C(C)C | 23
O=C1C=CC(=O)N1c1ccc(O)cc1 | 16
O=[N+]([O-])c1cccc(-c2ccc(C(=S)N3CCN(c4ccc(F)cc4)CC3)o2)c1 | 22
CN(C)CCNc1cc(-c2ccncc2)nc2ccccc12 | 61
COc1ccc(N(CC(=O)NCc2ccccc2C)S(=O)(=O)c2ccccc2[N+](=O)[O-])c(OC)c1 | 6
CSc1sc(C(=O)NNC(C)=O)c2c1C1(CCC2)SCCS1 | 11
O=C(Nc1ccc2c(c1)OCO2)C1CCN(C(=O)c2ccc(Br)cc2)CC1 | 3
Cc1ccc(C)c(NC(=S)N/N=C2/CCCCc3ccccc32)c1 | 12
CCCCC(=O)Nc1ccc2c(c1)oc1ccccc12 | 8
Cc1cc(C)c(S(=O)(=O)N2CCCCC2)c(C)c1N(C)S(=O)(=O)c1ccc(Cl)cc1 | -2
CCCN(CC1CC1)C(=O)CCc1nnc(CCc2c[nH]c3ccccc23)o1 | -5
CCOC(=O)N1C2=NC(C(=O)OC)=C(C(=O)OC)[C@@H]3Nc4ccccc4[C@]23C[C@H]1C(=O)OC | 15

# More records.
Molecule | Biofilm kill mix
N#CC1=CN(Cc2ccccc2)C=C(/C=N/Nc2ccccc2)C1 | 15
COc1ccccc1NC(=O)Nc1ccc(-n2ccc(C(F)(F)F)n2)cc1 | 8
COC(=O)NNC1=CC(=O)CC(C)(C)C1 | 15
COc1cc(/C=N/NC(=S)NC2CC3CC2C2C=CCC32)ccc1O (configuration not stated) | 17
O=[N+]([O-])c1ccc(N=Nc2c(Cl)cc(O)cc2Cl)cc1 | 15
C=CCn1c(CCC(O)CCCCC)n[nH]c1=S (configuration not stated) | 9
COCCN(C(=O)CSc1nc2ccccc2c(=O)n1CC(C)C)c1c(N)n(Cc2ccccc2)c(=O)[nH]c1=O | 16
CNC(=S)NNC(=O)c1c(C)nc2cc(C)ccn12 | 3
COc1cc(NC(=O)c2ccccc2)cc(OC)c1 | 9
Cc1ccc(S(=O)(=O)NCCCCCC(=O)Nc2ccccc2C)cc1 | 11
CCCC1CC(C)(/C(C)=N\NC(N)=S)OC1=O (configuration not stated) | -5
Cc1cc(C)c(S(=O)(=O)Cc2ccccc2)c(=O)[nH]1 | 6
COc1ccc(C2CC(=O)C3=C(C2)Nc2ccccc2N(C(=O)CCC(=O)O)C3c2ccc(F)cc2)cc1 (configuration not stated) | 14
O=C(CCl)NCc1cc(-c2ccc(Cl)cc2)no1 | 19
COC(=O)C(C)(C)ONC(=O)Nc1ccccc1[N+](=O)[O-] | -2

# Next section:
Molecule | Biofilm kill mix
CC1CCCCC1NC(=O)/C(C#N)=C/c1ccccc1F (configuration not stated) | 18
CCOC(=O)c1c(NC(=O)Cn2nc(C(=O)O)c3ccccc3c2=O)sc(C)c1C | 20
Cc1ccccc1NC(=S)Nc1ccc2cn[nH]c2c1 | 17
Cc1cc(C(=O)COC(=O)C2CC2)c(C)n1-c1ccc(F)cc1 | 7
Cc1noc(C)c1CSc1ncnc2sc3c(c12)CCC3 | 11
S=c1[nH]nc(Cn2nnc3ccccc32)n1-c1ccccc1 | 9
Cc1ccc(C(=O)C[n+]2ccc3ccccc3c2)cc1 | 11
C=CCC(=O)N1CCCC(CCC(=O)NCc2ccccc2F)C1 (configuration not stated) | 3
COc1ccc(C2C(C#N)=C(N)OC3=C2C(=O)CC(C)(C)C3)cc1 (configuration not stated) | 21
Cc1nn(Cc2ccc(Cl)cc2)c(C)c1NC(=O)c1ccc([N+](=O)[O-])cc1 | 18
COc1ccc(OCC(=O)OCC(=O)NCc2ccc(F)cc2)cc1 | 2
CCOC(=O)C1(CCCc2ccccc2)CCN(C(=O)COC)CC1 | 18
Cc1nc2ccccc2c(=O)n1/N=C/c1ccco1 | 16
O=C(CSc1nc2ccccc2c(=O)n1-c1ccccc1Cl)Nc1cccc(S(=O)(=O)N2CCOCC2)c1 | 16
C[N+](C)(C)C(Cc1ccccc1)C(=O)[O-] (configuration not stated) | 19

# The listing continues:
Molecule | Biofilm kill mix
S=c1[nH]c(-c2ccccc2)cn1/N=C/c1cccnc1 | 26
CSc1nncn1/N=C/c1ccc([N+](=O)[O-])cc1 | 15
Cc1ccc(NC(=O)COC(=O)C2CCC(=O)N2)c([N+](=O)[O-])c1 (configuration not stated) | 11
COc1cc(CC(=O)Nc2cccc(SC)c2)cc(OC)c1OC | 11
O=C(CN1C(=O)NC2(CCCCC2)C1=O)Nc1cccc(S(=O)(=O)N2CCOCC2)c1 | 13
CCCCN(CCCC)C(=S)NC(=O)c1ccccc1Cl | 13
CN(C)c1nc2ncn(Cc3ccccc3)c2c(=O)[nH]1 | 31
COc1cccc(CC(=O)Nc2ccc(S(=O)(=O)Nc3nc(C)cc(C)n3)cc2)c1 | 7
COc1ccc(NC(=O)c2c(NC(=O)CCC(=O)O)sc3c2CCCCC3)cc1 | 25
CCOc1ccc(OCC)c(Nc2cc(C)nc3nc(C)nn23)c1 | 15
COc1ccc([N+](=O)[O-])cc1N(CC(=O)NCCC1=CCCCC1)S(C)(=O)=O | 8
Cc1ccc2nc3sc(C(=O)NCc4ccco4)c(N)c3cc2c1 | 11
O=C(CCl)Nc1ccc(N=Nc2ccccc2)cc1 | 14
O=C(CCc1nnc(CCCc2ccccc2)o1)NCCN1CCOC1=O | 17
COC(=O)CCn1nc(-c2ccc(Cl)cc2)c2ccccc2c1=O | 14

# Looked up by structure from above, three records:
Molecule | Biofilm kill mix
Cc1c(NC(=O)c2ncn[nH]2)cccc1-c1nc2ccccc2s1 | 7
O=C(CN1C(=O)NC2(CCCCC2)C1=O)Nc1cccc(S(=O)(=O)N2CCOCC2)c1 | 13
COc1cc(/C=N/NC(=S)NC2CC3CC2C2C=CCC32)ccc1O (configuration not stated) | 17

# (listing goes on)
Molecule | Biofilm kill mix
Cc1cc(C)c(C(=O)COC(=O)c2ccc([N+](=O)[O-])o2)cc1C | 9
CCCNS(=O)(=O)c1ccc(OCC(=O)N(C)Cc2ccccc2)cc1 | 17
COc1ccc(NC(=S)N(CCCN2CCCCCC2)Cc2cccs2)cc1 | 20
O=C(Nc1ccc(-c2nnc3n2CCCCC3)cc1)c1ccco1 | 6
COC(=O)c1ccc(COc2ccccc2/C=N/NC(=O)c2cccnc2)cc1 | 34
Cc1cc(=O)cc(C)n1-c1ccc(Br)cc1 | 13
CC(NC(=S)Nc1c(Br)cccc1OC(F)F)C(C)(C)C (configuration not stated) | 4
O=C(COC(=O)CSc1cc(Cl)ccc1Cl)Nc1ncc(C(F)(F)F)cc1Cl | 14
Cc1ccc(/C=C/C(=O)O)cc1S(=O)(=O)Nc1ccc2c(c1)OCO2 | 30
Clc1ccc2nc3c4ccccc4cnn3c2c1 | 6
Cc1ccc(S(=O)(=O)NCC(=O)N/N=C/c2ccc(Cl)cc2)cc1 | 7
Cn1c(SCc2nc3cc(C(=O)O)ccc3c(=O)[nH]2)nnc1C(F)(F)F | 7
c1cc2c(cc1-c1csc(NNC3=NCCCCC3)n1)OCCO2 | 9
COc1cccc(OCCn2cc(/C=N/NC(=O)c3ccncc3)c3ccccc32)c1 | 9
CC(=O)N1CCC(N(CCN2CCOCC2)C(=S)Nc2cccc(C)c2)CC1 | 10

# Additional records
Molecule | Biofilm kill mix
O=c1[nH]c2cc(Cl)c([N+](=O)[O-])nc2[nH]1 | 21
CN(Cc1ccccc1)C(=O)c1nc2ccccn2c1CN1CCCC1c1nccs1 (configuration not stated) | 13
Cc1ccc2[nH]c(C)c(CCNC(=O)c3cc4cc([N+](=O)[O-])ccc4oc3=O)c2c1 | 21
CC(C)(C#N)Nn1cnnc1 | 10
COc1cc(CNc2ccc3c(c2)OCCO3)ccc1OCC(N)=O | 2
Cc1ccc(-n2c(C)cc(/C=N/NC(=O)CC3(C)OCCO3)c2C)c(C)c1 | 9
O=C(CN1C(=O)c2ccccc2C1=O)OCCOCCN=C1NS(=O)(=O)c2ccccc21 | -2
COC(=O)COc1ccc2c(=O)c(-c3ccccc3OC)coc2c1 | -6
Cc1ccc(C(=O)NCc2ccccn2)cc1Cl | 26
Clc1ccc(-c2nc(NCCCN3CCOCC3)c3ccccc3n2)cc1 | 15
COc1ccc(C2CC(c3ccccc3)=NN2C(=O)c2ccc(Cl)c([N+](=O)[O-])c2)cc1 (configuration not stated) | 11
O=[N+]([O-])c1ccc(N2CCOCC2)cn1 | 13
O=C(N/N=C/c1ccc2c(c1)OCO2)c1cc2ccccc2o1 | 7
CCC(C)[C@H]1CNC(=S)N1CCc1cccc2ccccc12 (some centres not stated) | 15
CCCN(C(=O)CCl)C1=CCCCC1 | 10

# (next part)
Molecule | Biofilm kill mix
COc1cccc(CN(C)CC(=O)Nc2cc3oc4ccccc4c3cc2OC)c1 | 20
Cc1cc(C(=O)NN)n[nH]1 | 18
O=[N+]([O-])c1ccccc1/C=C/C=N/n1c(-c2ccccc2F)n[nH]c1=S | 24
CC(C)Cn1c(N)c(C(=O)COC(=O)c2ccccc2Cl)c(=O)n(C)c1=O | 18
COC(=O)CSc1nn(-c2ccc(F)cc2)c(=S)s1 | 10
COc1ccc(CNC(=S)NC2CCCC2)cc1 | 14
CCCn1c(SCC(=O)c2c(C)[nH]c(C)c2C(=O)OCC)nc2ccccc21 | 11
N#CCc1ccc(Oc2ncc(C(F)(F)F)cc2Cl)cc1 | 12
O=[N+]([O-])C(=C1NCCN1)C(Cl)=C(Cl)Cl | 25
Oc1ccc(/C=N/Nc2ncnc3nc[nH]c23)cc1 | 10
COc1ccc(-c2csc(NC(=O)CSc3nc(C)nc4sc(C(=O)O)c(C)c34)n2)cc1 | 23
CS(=O)(=O)N(CC(=O)N1CCC(C(N)=O)CC1)c1cc(C(F)(F)F)ccc1Cl | 21
O=C(COC(=O)c1ccccc1Br)NCc1ccccc1 | 15
CSc1ccc(CN2CCN(Cc3ccccc3)C(CCO)C2)cc1 (configuration not stated) | 13
CCOc1ccc(CC(=O)NNC(=S)NCCc2ccccc2)cc1 | 11

# Next entries.
Molecule | Biofilm kill mix
Cc1c(/C=C/C(=O)c2ccc(O)cc2)cnn1C | 7
C[N+](C)(C)CCCCCC(=O)/C=N/O | 19
COc1ccc(NC(=O)Cn2cnc3c(oc4nc5c(cc43)COC(C)(C)C5)c2=O)cc1 | 17
COc1ccc(C2CC(c3ccccc3)=NN2c2ccc(S(N)(=O)=O)cc2)cc1OC (configuration not stated) | 14
CC(=O)Oc1cccc(N2C(=O)c3ccc(C(=O)Nc4cccnc4)cc3C2=O)c1 | 9
CN(Cc1ccccc1)C(=O)c1ccccc1NC(=O)C1CC1 | 15
CC(=O)c1ccc(N2Cc3ccccc3/C2=N\C(=O)Nc2ccccc2)cc1 | 16
C/C(Cc1ccccc1)=N\NC(=O)c1ccc(F)cc1 | 9
Cc1ccc(N2CN(Cc3cccnc3)CNC2=S)c(C)c1 | -1
O=C1CC(C(=O)Nc2ccc(Cl)c(Cl)c2)S/C(=N\N=C\c2ccco2)N1 (configuration not stated) | 25
O=Cc1cccn1-c1ncc(Br)cn1 | 12
CCOc1ccccc1NC(=O)Cn1c(=O)n(-c2ccc(OC)cc2OC)c(=O)c2c(C)c(C(=O)N(CC)CC)sc21 | 4
O=C(CN(c1cccc(C(F)(F)F)c1)S(=O)(=O)c1ccc(Cl)c([N+](=O)[O-])c1)NCc1ccccc1 | 12
COc1ccccc1C1CCN(C(=O)c2cccs2)CC1 | 23
Cc1occc1C(=O)NCc1ccco1 | 19
O=C(C[n+]1cc(-c2ccc(F)cc2)n2c1CCC2)N1c2ccccc2Sc2ccccc21 | 11

# In another format: results already given.
CN(Cc1ccccc1)C(=O)c1ccccc1NC(=O)C1CC1
  Biofilm kill mix: 15
Cc1c(/C=C/C(=O)c2ccc(O)cc2)cnn1C
  Biofilm kill mix: 7
CC(=O)c1ccc(N2Cc3ccccc3/C2=N\C(=O)Nc2ccccc2)cc1
  Biofilm kill mix: 16
Cc1ccc(N2CN(Cc3cccnc3)CNC2=S)c(C)c1
  Biofilm kill mix: -1
